# Assay outcomes from PubChem.
# UCH37 DUB inh = inhibitors of human deubiquitinating enzyme UCH37; 330,000 tested, 0.33% active; purified proteasome/UCH37, Ub-AMC cleavage fluorescence; inhibition, % (no concentration beside the values);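 active = mean of two replicates above 20%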;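 also: 0% = compound-free wells with enzyme and 100% = wells lacking proteasome; stock transfer was 100 nL into about 20 µL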
# Target sequence (Q9Y5K5 whole entry, looked up): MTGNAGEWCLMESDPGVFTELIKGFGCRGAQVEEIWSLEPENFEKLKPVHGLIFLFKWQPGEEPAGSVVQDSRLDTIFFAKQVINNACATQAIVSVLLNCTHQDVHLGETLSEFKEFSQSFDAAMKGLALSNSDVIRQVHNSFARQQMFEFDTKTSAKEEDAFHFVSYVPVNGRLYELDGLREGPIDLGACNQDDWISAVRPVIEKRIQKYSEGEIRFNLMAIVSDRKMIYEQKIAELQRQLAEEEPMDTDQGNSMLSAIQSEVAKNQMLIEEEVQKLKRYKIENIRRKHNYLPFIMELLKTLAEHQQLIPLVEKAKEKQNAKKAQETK
#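 assay system = human UCH37 enzyme supplied as purified proteasome complex | amount = proteasome at 0.15 nM in the dispensed enzyme solution | schedule = 30 min compound-proteasome preincubation then 25 min substrate reaction, room temperature | measured by = fluorescence, ex 355 nm, em 460 nm | benchmarks = no-proteasome wells (full inhibition) and compound-free wells (no inhibition)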
# Vif A3G = inhibitors of Vif binding to APOBEC3G peptide, primary screen, biochemical, TR-FRET, GST-Vif 1-94, biotin-A3G peptide, dose response retest (AID 1117319) | TR-FRET GST-Vif / biotin-A3G peptide binding; higher % means a stronger effect; test concentration not given here; strong numbers were not always called active | 260,000 tested, 0.57% active | one-dose inhibition, %; IC50 in µM for titrated hits;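 active = above the screen mean plus three standard deviations and confirmed in dose response; inconclusive = results disagree or hit not tested in dose response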;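 also: Vif residues 1-94 fused to GST binding biotinylated APOBEC3G peptide 110-148; 0% = full assay without inhibitor and 100% = GST in place of GST-Vif; retest series ran down from 100 µM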
# MLL AF4-AF9 inh = MLL-AF4/AF9 protein interaction inhibition; P42568; AlphaScreen, biotin-AF4 peptide binding to FLAG-AF9; inhibition, % at 10 µM; 350,000 tested, 0.47% active; AID 651704;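 active = every replicate reaching a set inhibition limit, whatever the replicate mean, cut at about 25% in these data; inconclusive = mean inhibition reaches that limit but some replicates miss it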;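 also: 0% = plate neutral control median and 100% = total signal loss; the record names both 10 and 1 µM as test concentration; the first replicate is given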
# FGF22 binding = binders of recombinant human FGF22 by thermal shift; 340,000 tested, 1.5% active; SYPRO orange fluorescence; percent of sucrose octasulfate shift, DMSO zero; AID 651658; calls only at 9.99 µM; Q9HCT0;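 active = melting point raised past a set limit in the mean and every replicate; inconclusive = no clear call; three in four hits are not shown here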
# Target sequence (Q9HCT0 whole entry, looked up): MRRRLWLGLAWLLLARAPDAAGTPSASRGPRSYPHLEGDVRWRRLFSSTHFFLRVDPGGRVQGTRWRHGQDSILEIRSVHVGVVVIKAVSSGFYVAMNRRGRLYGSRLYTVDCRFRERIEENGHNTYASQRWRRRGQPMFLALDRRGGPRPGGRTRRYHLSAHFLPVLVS
# RanGTP-Imp inh = inhibitors of RanGTP-importin-beta interaction, primary screen, biochemical, FRET, CFP-Ran, YFP-importin-beta, homogeneous | cell-free CFP-Ran/YFP-importin-beta FRET ratio | inhibition, % (no concentration beside the values) | 300,000 tested, 1.1% active | AID 2216;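 active = most replicates above 15%; inconclusive = exactly half above 15%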;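 also: 0% = DMSO wells and 100% = Ran loaded with GDP instead of GTP; wells of about 40 µL received 100 nL stock; the first replicate is given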
# HNF4A DNA FP = change in binding of human HNF4 alpha to DNA; HNF4a-FITC DNA binding, fluorescence polarization, 1 h; activity change, % at 10 µM; 360,000 tested, 0.3% active; in the data active = activity change above about 30%, passing the limit was not always enough;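 also: controls were the assay level and a saturating level of protein; the project sought stronger binding though the title names inhibitors; some compounds called inactive have numbers as strong as hits; positive values seem to mean higher polarization but the record does not say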
# Target sequence (P41235 whole entry, looked up): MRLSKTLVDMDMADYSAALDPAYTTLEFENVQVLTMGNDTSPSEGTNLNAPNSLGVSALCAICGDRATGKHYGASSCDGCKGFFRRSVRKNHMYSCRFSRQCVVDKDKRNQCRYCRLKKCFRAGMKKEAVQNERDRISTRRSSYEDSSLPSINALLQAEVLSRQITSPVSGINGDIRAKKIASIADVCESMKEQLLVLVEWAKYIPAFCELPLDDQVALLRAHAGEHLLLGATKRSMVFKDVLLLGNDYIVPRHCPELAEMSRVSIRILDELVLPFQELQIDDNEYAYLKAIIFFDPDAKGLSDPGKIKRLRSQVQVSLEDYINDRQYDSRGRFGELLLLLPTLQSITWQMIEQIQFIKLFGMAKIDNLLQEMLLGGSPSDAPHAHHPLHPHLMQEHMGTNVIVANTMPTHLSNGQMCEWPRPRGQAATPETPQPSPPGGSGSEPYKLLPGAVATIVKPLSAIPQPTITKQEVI
# Ecoli growth = inhibitors of Escherichia coli growth. OD600, 23 h; active compounds read low. OD600 absorbance (no concentration beside the values). 330,000 tested, 0.21% active;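 active = OD600 absorbance below the run mean of sample wells minus 3.6 SD, in any replicate, cut at about 0.56 in these data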;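 also: stock transfer was 300 nL into about 60 µL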
# Active calls of the source: *; i = inactive; ? = inconclusive; . = not tested or not shown; & = joins results of further samples.
SMILES,UCH37 DUB inh,Vif A3G,MLL AF4-AF9 inh,FGF22 binding,RanGTP-Imp inh,HNF4A DNA FP,Ecoli growth
O=C(NCc1ccccc1)C1=C[C@@H](c2ccccc2)C[C@@H](OCc2ccc(CO)cc2)O1,0.5,-9%,0.7&-1.2,i,0.7,5.0,.
CC(=O)N(C(C)=O)c1c(N2CCCC2)c2ccccc2oc1=O,0.3,.,-2.2,i,-2.1,-15,0.7
Cc1c(NS(=O)(=O)c2ccc3c(c2)Cc2ccccc2-3)c(=O)n(-c2ccccc2)n1C,2.5,-4%,-3.9,i,0.3,-1.2,0.65
Cc1cccc(NC(=O)C2CCN(C(=O)c3ccccc3C)CC2)n1,-2.3,14%,-0.7,i,.,-3.6,0.7
COc1ccc(-c2cc(C(=O)NNC3=NCCC3)c3c(C)nn(-c4ccccc4)c3n2)cc1,-1.8,-10%,-5.1,i,2.4,-4.3,0.71
COc1cc(/C=N/NC(=O)Cc2nnc(N)s2)cc(OC)c1OC,.,-2%,-1.0,i,7.3,3.1,.
CC(C)(C)OC(=O)C[C@H]1C/C=C\C[C@@H](CC(=O)NCCO)C(=O)NCCOC1=O,-1.1,.,1.1,i,.,4.3,.
Cc1ccc(Cn2nc(-c3ccccc3)nc2-c2ccccc2)cc1,0.4,8%,.,.,-7.6,2.4,0.68
COc1ccc2[nH]cc(CCNC(=O)Nc3ccccc3)c2c1,-2.1,-4%,0.0,i,1.6,-1.1,0.67
CCN(CC)CC(=O)Nc1nn(-c2ccccc2)nc1C(N)=O,-3.0,70%,.,.,0.4,0.5,0.68
N/C(=N\N=C\c1cccc(O)c1)c1nonc1N,.,-4%,1.6,i,6.3,0.4,.
S=C(NCCc1ccccn1)Nc1ccccc1Cl,2.4,-3%,-0.9,i,3.8,1.2,0.72
COc1ccc(NC(=O)Nc2c(C)n(C)n(-c3ccccc3)c2=O)cc1,2.2,1%,2.4,i,0.1,-2.8,0.72
COCCSc1nc2c(c(=O)[nH]c(=O)n2C)n1CCC(C)C,3.8,3%,3.7,i,6.0,-2.5,0.69
Cc1ccc(NC(=O)c2onc(C)c2Cl)cc1,3.8,9%,1.3,i,-2.9,0.1,0.7
CCCOc1ccc(C(=O)NC(=S)Nc2nc(C)c(C(=O)N(C)C)s2)cc1,7.2,4%,.,.,0.5,-2.0,0.69
Cc1nn(C)c(C)c1CN(C)S(=O)(=O)c1ccc(F)cc1,3.4,1%,.,.,-2.6,4.0,0.69
COC(=O)C[C@@H]1C[C@@H]2c3cc(NS(=O)(=O)c4ccc(F)cc4)ccc3O[C@@H]2[C@@H](CO)O1,.,-2%,0.1,i,.,0.6,.
CN(NC(=O)c1ccccc1Cl)c1ncc(C(F)(F)F)cc1Cl,3.1,-10%,5.1,i,-4.7,0.5,0.66
CC1CCCN(CCCNC(=O)C2CCC(CNS(=O)(=O)c3cccc4nsnc34)CC2)C1 (stereo unspecified),2.0,.,.,.,1.4,2.9,0.69
COc1ccc(S(=O)(=O)N2CCCCC2)cc1NC(=O)Cn1c(=O)cnc2ccccc21,-2.9,6%,3.2,i,5.8,1.9,0.71
Cc1ccc(N2C(=O)N(CC(=O)NC(N)=O)C(=O)C2C)cc1 (stereo unspecified),-0.6,-9%,-0.5,i,-2.4,1.4,0.7
Cc1ccc(/C=N/NC(=O)CSc2nc3nc(C)cc(C)n3n2)cc1,.,-1%,0.4,i,1.3,0.2,.
COc1ccc(C(C(=O)NC2CCCCC2)N(Cc2cccs2)C(=O)Cc2c[nH]c3ccccc23)cc1OC (stereo unspecified),3.4,-5%,.,.,2.8,4.5,0.71
Cc1ccsc1C(=O)Nc1cc(Cl)ccc1-n1cncn1,-0.8,7%,-32,i,.,5.3,0.66

# (listing goes on)
SMILES,UCH37 DUB inh,Vif A3G,MLL AF4-AF9 inh,FGF22 binding,RanGTP-Imp inh,HNF4A DNA FP,Ecoli growth
CCN(CC(=O)Nc1ccc2c(c1)OCCO2)CC(=O)Nc1ccc(C)c(S(=O)(=O)N(C)C)c1,-2.2,.,2.4,i,.,-0.8,0.67
CC(NC(=O)NNC(N)=S)(C(F)(F)F)C(F)(F)F,2.5,-3%,-3.1,i,3.6,-1.0,0.67
CCC(CO)Oc1cc(NC(=O)c2cccc3ccccc23)c2ncn(C(C)C)c2c1 (stereo unspecified),2.4,.,.,i,.,-1.5,0.7
CCC(C)c1ccc(NC(=O)c2cccnc2)cc1 (stereo unspecified),1.6,28%,.,.,1.7,2.9,0.72
Cc1oc(-c2ccccc2Cl)nc1CN(Cc1ccccn1)C[C@@H]1CCC(=O)N1,1.2,-1%,-0.7,i,2.6,-1.5,0.69
Cn1cccc1C1C(C#N)=C(N)OC2=C1C(=O)CC(C)(C)C2 (stereo unspecified),2.5,-3%,-8.7,i,-4.1,0.1,0.68
Cc1ccc2nc(-c3ccc(F)cc3)c(Cc3cccc(Cl)c3)n2c1,.,.,-1.9,i,.,1.3,.
CN(C)CCCNC(=O)C[C@H]1C[C@H](C(=O)N2CCCCC2)[C@@]2(CCc3ccccc3)c3[nH]c4cc(-c5ccco5)ccc4c3CCN2C1=O,-2.7,.,53*,i,.,-3.4,0.61
CCOc1ccc(N2C(=O)CC(N3CCN(C(=O)CN4CCCC4)CC3)C2=O)cc1 (stereo unspecified),1.2,-4%,3.7,i,?,2.5,0.7
COC(=O)c1sc(NC(=S)NC(=O)c2cc(OC)c(OC)c(OC)c2)nc1C,2.1,.,-0.4,i,1.2,2.2,0.72
CCCCNC(=O)N1CCN(Cc2ccc(F)cc2)CC1,-1.2,30%,-4.7,i,3.3,2.2,0.68
CCC(CC)C(=O)c1c[nH]c(C(=O)N2CCN(c3ccccc3)CC2)c1,7.9,0%,-3.7,i,-3.0,-2.9,0.72
Cn1c(=O)c2c(ncn2CC(=O)N2CCCc3ccccc32)n(C)c1=O,-1.3,-2%,.,.,0.3,4.2,0.79
CC(C(=O)N1c2ccccc2CC1C)N1CCN(S(=O)(=O)c2ccccc2F)CC1 (stereo unspecified),0.6,1%,1.1,.,.,-2.2,0.72
COc1ccc2[nH]c(=O)c(CN(C)C(=O)C3CCCCC3)cc2c1,-20,-2%,.,.,-0.1,-4.5,0.75
CCC(=O)Nc1cc2c(cc1Cl)-c1ccccc1C2,-0.2,-4%,-3.6,i,.,-0.6,0.69
O=C(CN(C(=O)CCC(=O)Nc1ccccn1)c1ccc2c(c1)OCO2)NCc1ccc(F)cc1,5.3,.,-1.1,i,-0.8,0.1,0.7
O=C(O)c1ccccc1-c1ccccc1C(=O)Nc1nc2ccccc2s1,5.2,0%,-11,i,1.3,0.2,0.69
N#CCSc1nc(N)c(C#N)c(C2CCCCC2)c1C#N,3.4,3%,.,.,4.2,-1.2,0.71
COc1ccc(CNc2nc3c(c(=O)[nH]c(=O)n3C)n2Cc2ccccc2)cc1,0.3,-5%,-2.2,i,-0.1,-1.8,0.71
CCn1c(SCC(=O)N/N=C/c2cccs2)nc2ccccc21,.,0%,2.5,i,-3.7,-2.3,.
CC1(C)O[C@H]2OC([C@H](O)CON3C(=O)c4ccccc4C3=O)[C@H](O)[C@H]2O1 (stereo partly specified),2.1,1%,-7.4,i,.,.,.
Cc1cc(C(=O)N(C)CC2CCCN(CCc3ccc(F)cc3)C2)c(C)o1 (stereo unspecified),0.0,.,3.1,i,3.0,0.3,0.66
O=C(Nc1ccccc1N1CCOCC1)c1cccc(S(=O)(=O)Nc2ccccc2F)c1,8.5,12%,-4.6,i,.,4.8,0.64
CCOCCn1ccc2c(OCC(=O)NCCc3ccc(OC)c(OC)c3)cccc2c1=O,1.4,1%,-9.8,i,0.9,-1.7,0.73

# Reformatted: entries from further up
canonical_smiles | UCH37 DUB inh | Vif A3G | MLL AF4-AF9 inh | FGF22 binding | RanGTP-Imp inh | HNF4A DNA FP | Ecoli growth
CCOc1ccc(N2C(=O)CC(N3CCN(C(=O)CN4CCCC4)CC3)C2=O)cc1 (stereo unspecified) | 1.2 | -4% | 3.7 | i | ? | 2.5 | 0.7
COc1ccc(CNc2nc3c(c(=O)[nH]c(=O)n3C)n2Cc2ccccc2)cc1 | 0.3 | -5% | -2.2 | i | -0.1 | -1.8 | 0.71

# MLL AF4-AF9 inh: hit marks shown above.
SMILES,UCH37 DUB inh,Vif A3G,MLL AF4-AF9 inh,FGF22 binding,RanGTP-Imp inh,HNF4A DNA FP,Ecoli growth
CN(C)CCCNC(=O)C[C@H]1C[C@H](C(=O)N2CCCCC2)[C@@]2(CCc3ccccc3)c3[nH]c4cc(-c5ccco5)ccc4c3CCN2C1=O,-2.7,.,53*,i,.,-3.4,0.61

# Following part:
SMILES,UCH37 DUB inh,Vif A3G,MLL AF4-AF9 inh,FGF22 binding,RanGTP-Imp inh,HNF4A DNA FP,Ecoli growth
O=C(c1ccc(S(=O)(=O)c2ccccc2)cc1)N1CCc2ccccc2C1,0.0,.,.,.,4.8,-0.6,0.7
O=C(COc1ncnc2ccccc12)N1CCN(C(=O)c2ccco2)CC1,1.9,1%,.,.,2.5,1.0,0.61
O=C(Nc1ccc(Nc2ccccc2)cc1)c1ccc(Br)cc1,-3.0,.,5.6,i,1.0,-1.7,0.7
CCc1noc(C)c1C(=O)Nc1ccc(Cl)c(S(=O)(=O)N2CCCCC2)c1,1.3,-3%,-1.8,i,7.8,-4.2,0.68
CCOC(=O)N1CCN(S(=O)(=O)c2ccc(OCC(=O)OC)cc2)CC1,3.2,7%,.,.,.,2.4,0.69
Cc1ccc2c(C)c(C(=O)NCCc3ccco3)oc2c1C,4.7,-2%,-3.5,i,-2.8,4.0,0.67
Cn1cc(C=O)c(-c2ccc3c(c2)OCCCO3)n1,2.0,.,2.0,i,-1.9,3.0,0.67
CCOc1ccc(-c2nnn(CCC#N)n2)cc1OC,1.9,-8%,-1.2,i,?,3.6,0.71
CCCCN(CCCNC(=O)c1ccc2c(c1)NC(=O)CN2C)c1ccccc1,.,-4%,7.3,i,.,5.2,.
CCOc1cc(C(=O)Nc2ccc(C(=O)NCCN(CC)CC)cc2)ccc1OCC(=O)N1CCOCC1,-2.1,1%,-0.6,i,.,-2.3,0.71
Cc1ccc(NC(=O)c2sc(N)nc2-c2ccccc2)cc1C,-3.2,0%,1.4,i,?,-5.0,0.69
CN(CC(=O)O)c1ccc(C(F)(F)F)cc1[N+](=O)[O-],1.1,3%,1.8,i,-2.3,-1.3,0.69
CCc1ccc(S(=O)(=O)c2n[nH]n3c2nc(=O)c2ccccc23)cc1,-7.3,23%,-1.6,i,3.7,0.1,0.69
COC(=O)[C@]1(C)CCC[C@@]2(C)C3CC[C@@]4(C)C[C@]3(CC[C@H]12)C[C@H]4O (stereo partly specified),2.3,-7%,-2.0,i,0.3,4.2,0.66
c1ccc(CCNc2ccnc3cc4ccccc4cc23)cc1,i,-19%,-6.6,i,152*,-4.9,0.5*
CCCn1c(SCC(=O)NCCc2ccc(Cl)cc2Cl)n[nH]c1=O,3.6,7%,.,.,-3.1,-2.7,0.71
CCOc1ccc(OCC)c(S(=O)(=O)N2CCOCC2)c1,1.3,2%,-2.3,i,-2.1,4.5,0.64
Cc1cc(C)nc(SC2CC(=O)N(c3ccc(Br)cc3)C2=O)n1 (stereo unspecified),4.4,-6%,1.7,i,0.6,-2.9,0.64
Cc1ccccc1OCCCCn1cnc2ccccc21,1.4,8%,.,.,.,-3.7,0.64
COc1ccc(C(C)=O)cc1CSc1ccc(S(=O)(=O)N2CCCCC2)cn1,4.4,-25%,2.3,i,.,1.1,0.72
CC(=O)Cn1c(CN2CC(C)CC(C)C2)nc2c1c(=O)n(C)c(=O)n2C (stereo unspecified),-0.9,6%,.,.,-4.8,-7.4,0.73
COC(=O)CC1c2cc(OC)c(OC)cc2CC(=O)c2cc(OC)c(OC)cc21 (stereo unspecified),1.9,25%,-4.3,i,-1.1,-0.4,0.66
CCCc1nn(CCc2ccccn2)c(N)c1CC,2.8,13%,.,.,10,0.8,0.68

# Some of the compounds tested; rates above refer to the full screens.
